Source: PubChem BioAssay
PKM2 activator = qHTS Assay for Activators of Human Muscle isoform 2 Pyruvate Kinase; purified PKM2, Kinase-Glo ATP luminescence, activation; response scale: 0% is enzyme alone, no compound; actives 0.34% (n = 260,000); AID 1631, 2009; Pyruvate kinase PKM (Homo sapiens), P14618; Potency, µM (series often up to 57.5 µM), without a hit: at the top dose activation, hits mostly activators; also: % is scaled to controls: 0 for no effect and ±100 for the full control effect; nearly all actives have a fitted effect of over 55% in size
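Purified hPK-M2 (>95% pure) converted ADP (0.1 mM final) to ATP with 0.5 mM PEP in 50 mM imidazole pH7.2, KCl, MgCl2, Tween 20, BSA; 1 h at room temperature. ATP detected by Kinase-Glo luminescence.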
Mito fusion act = qHTS Assay for Small Molecule Inhibitors of Mitochondrial Division or Activators of Mitochondrial Fusion | S. cerevisiae fusion-defective mutant growth rescue, CellTiterGlo 48 h | Potency, µM (titrated, usually from 46.1 µM), for the others: at the top dose growth rescue (activation), usual class: activators | actives 0.23% (n = 320,000) | AID 485298, 2010;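 also: % of control where 0% means no effect; nearly all actives have a fitted effect of over 45% in size; temperature-sensitive fusion mutants such as fzo1-1 at 37 °C on non-fermentable ethanol glycerol medium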
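Read-out: ATP-based luminescence (CellTiterGlo, 10 min ambient) reporting growth of fusion-defective ts yeast after 48 hours at 37C on glycerol/ethanol YPEG medium in the presence of compound.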
MBNL1-CUG inh = qHTS Assay for Inhibitors of MBNL1-poly(CUG) RNA binding; Muscleblind-like protein 1 (Homo sapiens), Q9NR56; TR-FRET MBNL1-His/biotin-(CUG)12 binding, 665/545 ratio; Potency, µM (series often up to 57.5 µM), without a hit: top-dose activity change, negative = inhibition, usual class: inhibitors; actives 0.036% (n = 280,000); AID 2675, 2010; active = well fitted inhibition curve with a large enough effect in the signal ratio, with a control signal flat, not every such curve was filed as active; inconclusive = small, poorly fitted or top-dose-only effect, or effect the other way, or a change in a side signal; inactive = no such curve, though single readings can be large or run the other way; the % refers to the signal ratio; also: % is scaled to controls: 0 for no effect and ±100 for the full control effect
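His-tagged MBNL1 binding to biotinylated (CUG)12 RNA was measured by TR-FRET using terbium anti-His antibody (0.055 ng/ul final) and streptavidin-XL665 (5 nM final). Compounds were titrated 92 nM to 58 uM; 60 min at room temperature.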
Menin MLL FP TR = qHTS Assay for Inhibitors Targeting the Menin-MLL Interaction in MLL Related Leukemias: Competition With Texas Red Labeled MLL-derived Mutant Peptide; Menin + Texas Red MLL mutant peptide, fluorescence polarization; actives 0.23% (n = 270,000); Potency, µM (doses to about 61.6 µM), for inactives: at the top dose FP activity change, negative = inhibition, actives largely listed as inhibitors; O00255; active = well fitted inhibition curve with a large enough effect in the polarisation, with a control signal flat, not every such curve was filed as active; inconclusive = small, poorly fitted or top-dose-only effect, or effect the other way, or a change in a side signal; inactive = no such curve, though single readings can be large or run the other way; the % refers to the polarisation; also: % of control where 0% means no effect; many of its hits are not listed in these tables
Target sequence (O00255 whole entry, looked up): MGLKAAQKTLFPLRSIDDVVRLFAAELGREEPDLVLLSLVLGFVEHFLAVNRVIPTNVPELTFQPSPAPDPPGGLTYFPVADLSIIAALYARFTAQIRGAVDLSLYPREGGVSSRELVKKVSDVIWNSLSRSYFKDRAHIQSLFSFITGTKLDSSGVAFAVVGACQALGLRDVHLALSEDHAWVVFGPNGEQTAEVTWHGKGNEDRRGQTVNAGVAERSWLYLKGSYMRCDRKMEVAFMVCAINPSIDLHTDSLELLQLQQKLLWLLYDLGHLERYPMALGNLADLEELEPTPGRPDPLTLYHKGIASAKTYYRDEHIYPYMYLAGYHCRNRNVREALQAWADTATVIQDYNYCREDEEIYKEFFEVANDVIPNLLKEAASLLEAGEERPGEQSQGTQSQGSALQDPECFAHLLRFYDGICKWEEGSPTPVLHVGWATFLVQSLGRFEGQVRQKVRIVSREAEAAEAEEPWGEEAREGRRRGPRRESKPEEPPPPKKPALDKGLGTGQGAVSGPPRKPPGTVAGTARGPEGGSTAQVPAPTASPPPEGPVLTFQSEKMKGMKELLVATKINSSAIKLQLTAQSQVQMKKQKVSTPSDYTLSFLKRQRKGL
Numbers without * were called inactive; ? = inconclusive; . = not tested or not shown; & = joins results of further samples; ! = not active in a repeat; [ ] = another dose, or the depositor's remark. Unless noted, calls follow the shape of the dose curve; as a rule, active = well fitted activation curve with a large enough effect; inconclusive = small, poorly fitted or top-dose-only effect; inactive = no such curve, though single readings can be large or run the other way. Potency is read from the fitted curve at half-maximal effect. The list is partial. The share of hits here may be higher or lower than overall.

Short keys: A = PKM2 activator; B = Mito fusion act; C = MBNL1-CUG inh; D = Menin MLL FP TR
C[C@@H]1O[C@@H](OC2CC(O)C3(CO)C4C(CCC3(O)C2)C2(O)CCC(C3=CC(=O)OC3)C2(C)C[C@H]4O)[C@H](O)[C@H](O)[C@H]1O (stereo not given in full)
  A: .; B: .; C: .; D: 13.5%

CCn1cc(C(=O)O)c(=O)c2ccc(C)nc21
  A: .; B: 5.8µM*!; C: -12.4%&-8.6%; D: 16.5%

C[C@@H]1O[C@H](O[C@@H]2C[C@@H](O)[C@]3(CO)[C@H]4[C@H](O)C[C@]5(C)[C@@H](C6=CC(=O)OC6)CC[C@@]5(O)[C@@H]4CC[C@]3(O)C2)[C@@H](O)[C@H](O)[C@H]1O
  A: .; B: .; C: .; D: 0.0%[24.8 µM]

CC[C@H]1CN2CCc3cc(OC)c(OC)cc3[C@H]2C[C@@H]1C[C@@H]1NCCc2cc(OC)c(OC)cc21
  A: .; B: .; C: .; D: ?

CN1[C@@H]2CC(OC(=O)[C@H](CO)c3ccccc3)C[C@H]1[C@@H]1O[C@@H]12 (stereo not given in full)
  A: 1.1%&-2.4%; B: -2.4%&5.5%&1.1%; C: -3.6%&13.4%; D: -10.3%&4.7%

CC1CC(C)C(=O)[C@H](C(O)CC2CC(=O)NC(=O)C2)C1 (stereo not given in full)
  A: .; B: .; C: .; D: -21.1%

NC(=O)c1cn(C2OC(CO)C(O)C2O)c2ncnc(N)c12 (stereo not given)
  A: 2.8%; B: -12.2%; C: 1.9%; D: -3.6%

COc1ccc(O)c(C(C)(C)C)c1
  A: 0.5%; B: -3.5%; C: -10.4%; D: 2.1%&2.6%

CC(=O)N1CCN(c2ccc(OC[C@@H]3CO[C@@](Cn4ccnc4)(c4ccc(Cl)cc4Cl)O3)cc2)CC1
  A: .; B: .; C: .; D: -0.1%[24.8 µM]

COC(=O)C1=C(C)NC(C)=C(C(=O)OC)C1c1ccccc1[N+](=O)[O-]
  A: -13.8%; B: ?; C: ?; D: -8.8%

A portion from the list above:
Short keys: A = PKM2 activator; B = Mito fusion act; C = MBNL1-CUG inh; D = Menin MLL FP TR
CC[C@H]1CN2CCc3cc(OC)c(OC)cc3[C@H]2C[C@@H]1C[C@@H]1NCCc2cc(OC)c(OC)cc21
  A: .; B: .; C: .; D: ?

CN1[C@@H]2CC(OC(=O)[C@H](CO)c3ccccc3)C[C@H]1[C@@H]1O[C@@H]12 (stereo not given in full)
  A: 1.1%&-2.4%; B: -2.4%&5.5%&1.1%; C: -3.6%&13.4%; D: -10.3%&4.7%

CC1CC(C)C(=O)[C@H](C(O)CC2CC(=O)NC(=O)C2)C1 (stereo not given in full)
  A: .; B: .; C: .; D: -21.1%

NC(=O)c1cn(C2OC(CO)C(O)C2O)c2ncnc(N)c12 (stereo not given)
  A: 2.8%; B: -12.2%; C: 1.9%; D: -3.6%

COc1ccc(O)c(C(C)(C)C)c1
  A: 0.5%; B: -3.5%; C: -10.4%; D: 2.1%&2.6%

CC(=O)N1CCN(c2ccc(OC[C@@H]3CO[C@@](Cn4ccnc4)(c4ccc(Cl)cc4Cl)O3)cc2)CC1
  A: .; B: .; C: .; D: -0.1%[24.8 µM]

COC(=O)C1=C(C)NC(C)=C(C(=O)OC)C1c1ccccc1[N+](=O)[O-]
  A: -13.8%; B: ?; C: ?; D: -8.8%
